D2 potentiator = human D2 receptor positive allosteric modulation; P14416; DiscoveRx D2 beta-arrestin cells, luminescence, 90 min; 100% = 57 uM dopamine signal; potentiation, % (test concentration not listed); 360,000 tested, 0.23% active; active = potentiation of 50% or more; inconclusive = 30% to 50%; inactive = 30% or less;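 also: compound concentration not given in the record; tested on top of an EC20 dose of dopamine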
Target sequence (P14416 whole entry, looked up): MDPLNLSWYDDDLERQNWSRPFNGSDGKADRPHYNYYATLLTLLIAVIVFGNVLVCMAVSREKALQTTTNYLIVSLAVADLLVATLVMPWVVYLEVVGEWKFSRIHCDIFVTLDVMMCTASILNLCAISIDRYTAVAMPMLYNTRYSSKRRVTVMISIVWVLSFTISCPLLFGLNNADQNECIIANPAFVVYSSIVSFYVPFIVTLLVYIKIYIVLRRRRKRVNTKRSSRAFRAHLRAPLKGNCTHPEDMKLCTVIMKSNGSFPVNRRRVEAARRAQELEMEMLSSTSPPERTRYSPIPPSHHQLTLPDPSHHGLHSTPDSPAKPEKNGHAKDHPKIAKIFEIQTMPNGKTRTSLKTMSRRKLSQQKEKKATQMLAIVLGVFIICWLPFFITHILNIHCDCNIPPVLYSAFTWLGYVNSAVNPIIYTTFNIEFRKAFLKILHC
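D2 cells co-treated with compound plus 50 nM dopamine (EC20) for 90 min at 37 deg C to detect potentiation. Beta-arrestin recruitment was read as enzyme-fragment luminescence after 1 h at ambient temperature. Full response was set by 57 uM dopamine.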
TRPV1 potentiator = enhances activation of the human vanilloid receptor TRPV1; AID 540277; potentiation, % at 8.33 µM; TRPV1-expressing cells, Fluo-8 calcium influx, capsaicin EC20 potentiation; host cell line not named in the record; control for the full effect not named in the record; 320,000 tested, 0.02% active; active means potentiation above 80%; inconclusive means 30% to 80%; inactive means below 30%; also: 0% is about no effect
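Fluo-8 calcium influx in TRPV1-expressing cells, kinetic read (ex 480/em 520 nm). Compound added and read 3 min for agonist activity, followed by capsaicin at EC20 final and 2 min further read for enhancement.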
ClpP mod = qHTS Assay for Activators of ClpP | purified B. subtilis ClpP, FRET peptide cleavage, 20 min | Potency, µM (top dose mostly 57.5 µM), for inactives: at the top dose activity change, negative = active | 340,000 tested, 1.9% active | AID 651965, 2013 | ATP-dependent Clp protease proteolytic subunit (Bacillus subtilis (strain 168)), P80244; active = well fitted falling curve with a large enough effect; inconclusive = small, poorly fitted or top-dose-only effect; inactive = no such curve, though single readings can be large or run the other way; also: potency is read from the fitted curve at half-maximal effect; the source files actives as falling curves though it sought activators and does not explain the sign; nearly all actives have a fitted effect of over 65% in size; many hits overshoot -100%
Target sequence (P80244 whole entry, looked up): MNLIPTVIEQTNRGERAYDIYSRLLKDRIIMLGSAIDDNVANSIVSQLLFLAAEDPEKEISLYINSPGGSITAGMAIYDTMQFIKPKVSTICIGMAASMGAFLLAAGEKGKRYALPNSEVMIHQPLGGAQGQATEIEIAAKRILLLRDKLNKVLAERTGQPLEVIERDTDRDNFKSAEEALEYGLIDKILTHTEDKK
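FRET quenching reversal measured ClpP activation: 10 microg/mL B. subtilis ClpP at pH 8 with the FRET-FV decapeptide, read at 430 nm after 320 nm excitation. The 20-min minus 0-min signal was scaled between DMSO/no-enzyme wells and ADEP (5.8 microM final).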
gsp antagonist = gsp mutant antagonism | gsp-mutant cells, cAMP HTRF, 30 min; control for the full effect not named in the record | Potency, µM (highest dose often 76.9 µM), without a hit: at the highest dose activity change, negative = inhibition, usual class: inhibitors | 340,000 tested, 0.4% active; active = falling curve of any shape with a large fitted effect; inconclusive = falling curve, mostly with a smaller effect; inactive = flat or rising curve; cell line not stated here;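 also: intracellular cAMP measured with PDE inhibitor Ro 20-1724 present during compound exposure; potency is read from the fitted curve at half-maximal effect; % is scaled to controls: 0 for no effect and ±100 for the full control effect; nearly all actives have a fitted effect of over 65% in size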
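HTRF cAMP read-out (cAMP-d2 plus anti-cAMP antibody-K in lysis buffer, 30 min RT). Before lysis, cells are exposed to compounds with […] for 30 min at 37C in DPBS containing Ca/Mg, BSA and Tween 20.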
Sfp PPTase inh = blocks B. subtilis Sfp PPTase activity; Q9F4F7; Biochemical Sfp PPTase activity, qHTS; Potency, µM, for inactives: max response, negative = inhibition, hits mostly inhibitors; 310,000 tested, 3.5% active; active = well fitted inhibition curve with a large enough effect; inconclusive = small, poorly fitted or top-dose-only effect, or another doubt; inactive = no such curve, though single readings can be large or run the other way;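 also: the enzyme is Sfp with the accession as filed and its product quenches rhodamine fluorescence; potency is read from the fitted curve at half-maximal effect; 0% = enzyme reaction without inhibitor and -100% = no enzyme wells; top concentration of the series not given in the record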
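Reaction rates are the 30-min fluorescence difference (ex 525, em 598 nm) in wells containing 15 nM Sfp, 5 uM rhodamine-CoA and 12.5 uM BHQ-2-YbbR at pH 7.6 with 10 mM MgCl2.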
Menin MLL FP FL = inhibitors of human menin-MLL interaction, wild-type MLL peptide; Fluorescence polarization, fluorescein-MLL peptide displacement from menin; FP activity change, % at 61.4 µM; 290,000 tested, under 10 active; AID 1766; inconclusive = falling polarisation curve, or a change in total fluorescence; inactive = total fluorescence flat and polarisation flat or rising; no compound was filed as active; the % refers to the polarisation; negative = inhibition;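 also: % of control where 0% means no effect; inhibitors lower the polarisation; unlabelled MLL peptide was the positive control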
gsp ag = gsp mutant agonism; gsp mutant cells, cAMP HTRF, 30 min; control for the full effect not named in the record; Potency, µM (top dose mostly 76.9 µM), without a hit: at the top dose activation (cAMP increase), most hits filed as activators; 340,000 tested, 0.13% active; active = well fitted activation curve with a large enough effect; inconclusive = small, poorly fitted or top-dose-only effect, or another doubt; inactive = no such curve, though single readings can be large or run the other way; cell line not stated here;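 also: phosphodiesterase inhibitor Ro 20-1724 added with compounds to block cAMP breakdown; potency is read from the fitted curve at half-maximal effect; nearly all actives have a fitted effect of over 60% in size; about a fifth of the inactives were tested at one dose only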
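Cells stably selected in G418 were plated at 2000/well, grown 16-24 hr, then given compounds in DMSO with the PDE inhibitor […] (300 uM solution added) for 30 min at 37C; cAMP was read by HTRF.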
Starred values were filed as active, the others as inactive; u = inconclusive; x = not tested or not shown; & = joins results of further samples; [ ] = another dose, or the depositor's remark.

SMILES	D2 potentiator	TRPV1 potentiator	ClpP mod	gsp antagonist	Sfp PPTase inh	Menin MLL FP FL	gsp ag
O=C(O)CCC(=O)N1c2ccccc2NC2=C(C(=O)CC(c3ccc(F)cc3)C2)C1c1ccc([N+](=O)[O-])o1 (stereo unspecified)	6.3	16.4	x	-7.0%	-27.9%	3.2	-1.1%
c1ccc(-n2ncc3c2ncn2cnnc32)cc1	22.5	0.0	-24.3%	-3.9%	3.6%	-2.4	0.8%
Cc1ccc(NC(=O)N2CCc3ccccc3C2)cc1C	-12.5	-4.7	0.5%	-15.2%	15.4%	0.1	-49.8%[inhibitor]
Cc1ccc(C(C(=O)NCc2ccco2)N(CC2CCCO2)C(=O)Cn2nnc3ccccc32)cc1 (stereo unspecified)	-19.6	-1.2	0.9%	-0.8%	u	-0.9	-17.4%
CC1CCCCC1NC(=O)COC(=O)Cc1ccc(Br)cc1 (stereo unspecified)	11.8	-4.7	x	x	17.9%	-0.8	12.7%[15.4 µM]
COc1cc(NC(=O)Cc2ccc(Cl)cc2)ccc1NC(=O)c1ccco1	11.2	x	u	-5.3%	u	7.9	0.2%
COc1ccc(C2=CC(=O)C[C@H](c3ccc(F)cc3)C2)cc1F	-6.5	-8.9	-3.7%	-18.1%	x	x	-14.7%
O=C(c1cccc(Cl)c1)N1CCN(C(=O)c2ccccc2F)CC1	-2.4	10.6	-1.6%	4.2%	4.2%	0.5	-25.8%
O=C(NCc1ccc(Cl)cc1)C1CCN(c2cnccn2)CC1	-2.4	-8.5	-13.6%	-1.7%	14.8%	8.1	29.9%
Cc1ccc(C(CC(=O)O)NC(=O)CCNC(=O)c2ccco2)cc1 (stereo unspecified)	9.6	14.7	x	2.0%	x	x	-45.2%[15.4 µM]
CC(SC(=S)N1CCOCC1)C(=O)O (stereo unspecified)	10.9	0.9	-2.6%	-9.6%	5.2%	3.2	5.9%
COC(=O)c1ccc(-n2c(CCC(=O)O)ccc2-c2ccc(C)cc2)cc1	-11.2	15.3	-5.2%&-2.2%	31.6µM*	4.5%	11.3	-23.1%
Cc1[nH]c(C)c(S(=O)(=O)N(C)Cc2ccccc2)c1C(=O)N1CCCC1	-12.9	-1.2	1.1%	18.2%	8.6%	1.6	u
O=[N+]([O-])c1c(Nc2ccc(O)cc2)cc(N2CCOCC2)c2nonc12	-7.7	7.0	1.1%	-5.1%	-6.6%	3.4	-11.8%
O=C(NC1CC1)C1CC(=O)N(c2ccc(F)cc2)C1 (stereo unspecified)	-3.0	4.9	x	7.7%	9.3%	0.1	-25.2%
COC(=O)C(C(=O)OC)c1ccc(N)cc1	0.1	-3.0	-1.3%	8.1%	25.4%	0.2	3.3%[15.4 µM]
O=C(Nc1ccccc1F)c1ccc2nc(N3C(=O)CCC3=O)sc2c1	-14.2	-5.4	1.1%	-15.8%	10.7%	-2.6	0.0%
O=C(Cc1cccs1)Nc1nc(-c2ccccc2)cs1	0.4	-14.3	-1.2%	-17.0%	2.8%	1.6	-4.5%
Cc1cccc(NC(=O)CN2CCN(C(=O)C(C)Oc3ccc(C#N)cc3)CC2)c1C (stereo unspecified)	-0.7	-8.0	0.4%	-3.2%	x	x	-20.6%
Cc1cc(C)c2c(=O)cc(C(F)F)oc2c1	5.6	1.0	4.5%	5.2%	8.9%	-4.2	u
CCc1ccc(NC(=O)COC(=O)/C=C/c2c(C)nn(C3CCS(=O)(=O)C3)c2Cl)cc1 (stereo unspecified)	-10.7	7.6	-1.0%	9.4%	13.6%	0.1	7.5%
CCN(CC)CCCNC(=O)c1cc2c(=O)[nH]c3ccc(C)cc3c2s1	-32.6	-1.7	4.2%	13.9%	-0.1%	-2.0	-4.3%
CCOC(=O)NN=C1c2ccccc2-c2ccccc21	-7.6	-8.4	0.5%	-1.4%	9.2%	0.5	-8.6%[15.4 µM]
CC(=O)N1c2ccc(S(=O)(=O)N(C)c3cc(C)ccc3C)cc2CC1C (stereo unspecified)	-8.0	-21.3	-13.1%	-15.0%	7.2%	-4.9	-6.9%
O=C(CSc1nnc(CNC(=O)c2ccccc2)o1)c1ccc(Cl)cc1	-2.3	7.3	-0.6%	-20.0%	17.5%	x	18.6%
(continued)
SMILES	D2 potentiator	TRPV1 potentiator	ClpP mod	gsp antagonist	Sfp PPTase inh	Menin MLL FP FL	gsp ag
CC1CN=C(N(C(=O)Nc2ccccc2)C(C)c2ccccc2)S1 (stereo unspecified)	-3.0	-15.5	0.4%	3.6%	10.2%	0.1	1.0%
COc1cc(OC)c(OC)cc1/C=C/c1cc(C(F)(F)F)[nH]c(=O)n1	3.8	0.7	x	u	18.4%	-0.8	-0.5%
COc1cc(/C=C/C(=O)OCC(=O)N2CCC(C)CC2)ccc1OCC#N	0.2	15.8	3.9%	-6.7%	x	x	-80.5%[inhibitor]
N#CCCNS(=O)(=O)c1ccc(C(=O)OCC2CCCCC2)cc1	-8.3	-11.6	x	2.9%	9.0%	-0.8	-3.4%
CCN(CC(N)=O)S(=O)(=O)c1ccc(F)cc1	-2.1	5.0	x	5.0%	19.8%	-0.5	-2.2%
CN(CCCN1CCOCC1)Cc1cn(C)nc1-c1ccccc1F	-5.1	-0.6	1.1%	19.9%	-2.4%	-3.8	-1.8%[15.4 µM]
CCOC(=O)C1=C(C)NC(C)=C(C(=O)OCC)C1c1nc2ccccc2[nH]1	-17.1	x	-9.0%	7.3%	x	x	3.7%
Cc1ccc(SCC(=O)N2CCCC2)cc1	-5.5	-6.8	-0.7%	9.8%	13.4%	0.3	11.2%
COC(=O)c1cc(S(=O)(=O)N2CCC(C)CC2)cn1C	-1.5	3.9	-0.5%	3.7%	-3.6%	x	-2.6%
CNC(=S)NN(c1ccccc1)c1ccccc1	-6.9	0.6	-2.1%	0.4%	9.4%	2.0	3.2%
CC(NC(=O)Nc1ccc([N+](=O)[O-])cc1)C(c1cccs1)N1CCCC1 (stereo unspecified)	-7.8	-23.4	x	18.4%	-11.0%	10.0	-13.4%
COc1ccc(S(=O)(=O)Nc2cccc3c2O[C@H](CN(C)C)[C@@H](C)CN([C@H](C)CO)C3=O)cc1	0.3	x	-2.6%	0.7%	x	x	x
O=C(c1ccco1)N1CCN(S(=O)(=O)c2cc(Cl)ccc2Cl)CC1	-2.3	-3.0	-1.0%	0.0%	17.2%	1.1	2.4%[15.4 µM]
CCOC(=O)c1nn(-c2ccccc2)c(=O)cc1OCC(=O)Nc1cccc(OC)c1	-8.8	-12.8	2.9%	-5.8%	x	x	4.2%[15.4 µM]
Cc1ccc(S(=O)(=O)N2CCCCC2CCNC(=O)C(=O)NCc2ccco2)cc1 (stereo unspecified)	-4.9	2.7	x	10.4%	x	x	-22.8%[15.4 µM]
C[C@H](NC(=O)c1nc[nH]c1C(=O)N1CCc2ccccc2C1)C(=O)OCc1ccccc1	18.6	-6.5	2.7%	-25.6%	14.9%	3.1	-21.7%
CCOC(=O)N1CCN(C(=O)c2ccc(NC(=O)c3ccc(C)cc3)cc2)CC1	18.4	13.6	-0.8%	-25.4%	-2.0%	0.4	10.9%
O=C(c1cccc([N+](=O)[O-])c1)N1CCN(Cc2ccccc2)CC1	-9.3	16.0	1.2%	5.6%	2.1%	9.2	26.8%
O=C(COC(=O)c1c[nH]c2ccccc12)NC1CCCC1	-5.3	5.0	0.0%	-1.5%	x	x	u
CCOc1ccccc1NS(=O)(=O)c1c(C)noc1C	12.3	11.1	-1.1%	-4.9%	-15.4%	7.1	13.6%
CCCCn1c(=S)[nH]c2ncccc2c1=O	-9.3	8.7	-4.4%	0.1%	12.0%	-0.9	-4.5%[15.4 µM]
Cc1nc2c(-c3ccc(F)cc3)cnn2c(N)c1-c1ccc(F)cc1	-10.7	-11.8	x	1.3%	18.3%	5.4	-29.1%[15.4 µM]
CC(=O)c1ccc(Nc2c([N+](=O)[O-])ccc3nonc23)cc1	23.7	-20.5	x	11.2%	1.9%	-13.0	-3.3%
COc1ccc2nc(SC)cc(C)c2c1	-2.1	2.8	-0.5%	2.4%	-1.9%	-1.1	-3.6%[15.4 µM]
CCCn1c(N)c(C(=O)CSc2nnc(C3CC3)n2-c2ccccc2)c(=O)[nH]c1=O	-1.4	3.0	1.5%	7.0%	x	x	u

Three compounds already listed, arranged by the number in D2 potentiator, largest number first.
| compound | D2 potentiator |
| --- | --- |
| COc1cc(/C=C/C(=O)OCC(=O)N2CCC(C)CC2)ccc1OCC#N | 0.2 |
| CN(CCCN1CCOCC1)Cc1cn(C)nc1-c1ccccc1F | -5.1 |
| Cc1nc2c(-c3ccc(F)cc3)cnn2c(N)c1-c1ccc(F)cc1 | -10.7 |

Going on with the list.
SMILES	D2 potentiator	TRPV1 potentiator	ClpP mod	gsp antagonist	Sfp PPTase inh	Menin MLL FP FL	gsp ag
Cc1nc2nc(-c3cccs3)cn2nc1C	12.4	11.3	-12.6%	21.8%	2.2%	u	u
Cc1cccn2c(CNCC3OCCc4ccccc43)c(C(=O)N3CCCCC3)nc12 (stereo unspecified)	-13.7	5.7	x	-21.0%	-0.7%	0.6	-18.8%[15.4 µM]
O=C(Cc1c(O)c2ccccc2[nH]c1=O)OC1CCCCC1	-25.2	18.4	u	-1.2%	12.3%	-0.3	8.9%
COc1ccc(NC(=O)CSCc2cc(=O)n3c(C)csc3n2)cc1	-7.9	-29.5	-3.7%	15.6%	10.1%	-3.0	u
O=c1cc[nH]c2cccc(Cc3ccccc3)c12	8.3	x	-3.2%	-25.4%	12.2%	-1.5	0.0%
CC(=O)Nc1nc(COc2ccccc2)cs1	-1.4	-24.3	2.3%	-5.8%	9.0%	3.1	u
COC(=O)c1c(NC(=O)CC2Nc3cc(C)c(C)cc3NC2=O)sc(C)c1C (stereo unspecified)	-27.8	14.4	0.9%	15.9%	56.2µM*	u	-5.6%
COc1cc2c3nnc(-c4ccc(F)cc4)c-3cn(Cc3ccc(F)cc3)c2cc1OC	-9.6	-14.6	-21.0%	-10.5%	-7.9%	-2.6	-0.7%
Cc1cc(C)c(S(=O)(=O)c2ccccc2)c(N(C)C)n1	0.7	-3.3	2.3%	5.3%	11.9%	0.9	11.9%
Cc1cc(NC(=O)CCC(=O)N(CCC(C)C)C(C(=O)NCC2CCCO2)c2ccccc2C)no1 (stereo unspecified)	-8.4	16.1	-0.5%	2.2%	3.3%	2.5	-2.8%[15.4 µM]

Not a hit list; any-hit rate near 5.1%.
